Bioassay records as filed in PubChem.
NPSR antagonist: antagonists of human neuropeptide S receptor cAMP signaling; Potency, µM (titrated, usually from 38.3 µM), for the others: at the top dose activity change, negative = inhibition, hits mostly inhibitors; CHO-NPSR cells, cAMP TR-FRET, antagonist mode; 1% of 220,000 active; Q6W5P4; also: potency is read from the fitted curve at half-maximal effect; % is scaled to controls: 0 for no effect and ±100 for the full control effect; nearly all actives have a fitted effect of over 50% in size; many of its hits are not listed in these tables
CBFb-RUNX1 inh: CBF-beta/RUNX1 interaction disruption. AlphaScreen CBFb-His/RUNX1-biotin binding, biochemical. Potency, µM (titrated, usually from 59.8 µM), without a hit: at the highest dose activity, negative = inhibition, usual class: inhibitors. 230,000 tested, under 10 active; also: % of control where 0% means no effect
Target sequence (Q01196 whole entry, looked up): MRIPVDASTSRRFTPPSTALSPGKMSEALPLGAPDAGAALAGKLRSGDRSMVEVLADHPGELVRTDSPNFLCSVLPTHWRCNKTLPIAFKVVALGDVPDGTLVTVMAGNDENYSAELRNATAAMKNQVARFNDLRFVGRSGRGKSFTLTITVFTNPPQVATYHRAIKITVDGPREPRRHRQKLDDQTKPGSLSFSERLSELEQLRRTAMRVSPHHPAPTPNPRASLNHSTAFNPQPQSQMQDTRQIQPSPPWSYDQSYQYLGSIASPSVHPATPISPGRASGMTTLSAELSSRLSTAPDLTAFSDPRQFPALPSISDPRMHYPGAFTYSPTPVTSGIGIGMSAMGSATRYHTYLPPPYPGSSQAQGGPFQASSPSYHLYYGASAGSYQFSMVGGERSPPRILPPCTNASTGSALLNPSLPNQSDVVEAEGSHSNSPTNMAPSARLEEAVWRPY
Target sequence (Q13951 whole entry, looked up): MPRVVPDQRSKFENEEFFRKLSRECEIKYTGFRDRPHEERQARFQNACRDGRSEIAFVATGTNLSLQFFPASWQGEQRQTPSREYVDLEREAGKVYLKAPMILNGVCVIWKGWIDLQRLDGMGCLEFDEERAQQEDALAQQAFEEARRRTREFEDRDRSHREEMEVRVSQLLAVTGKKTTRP
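CBF-beta (His) and RUNX1 (biotin), 30 nM each; 20 min preassociation; + compound, 15 min; + beads 50 ng each (Ni, streptavidin), 90 min; RT; AlphaScreen read.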
Lamin A splicing: changes lamin A minigene splicing in HeLa cells; HeLa LMNA splicing GFP/RFP minigene ratio, 48 h; Potency, µM (titrated, usually from 46.1 µM), inactives show at the top dose ratio change, negative = inhibition, usual class: inhibitors; 0.01% of 200,000 active; active = well fitted inhibition curve with a large enough effect in the signal ratio, with a control signal flat, not every such curve was filed as active; inconclusive = small, poorly fitted or top-dose-only effect, or effect the other way, or a change in a side signal; the % refers to the signal ratio; also: potency is read from the fitted curve at half-maximal effect; % is scaled to controls: 0 for no effect and ±100 for the full control effect
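Read-out is the ratio of GFP to DsRed2 object intensity, acquired by 488 nm laser-scanning cytometry on HeLa lamin A-EGFP minigene reporter cells. Compound incubation 48 hrs at 37 °C in Opti-MEM with 2% FBS; DMSO 0.5% final.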
IMPase Li inh: cell-permeable IMPase inhibitors with lithium potentiation; CHO-M1 cells, IP1 TR-FRET (IP-One), carbachol + lithium; Potency, µM (titrated, usually from 59.4 µM), inactives show at the top dose activity, negative = IMPase inhibition, actives largely listed as inhibitors; 0.35% of 210,000 active; AID 1457;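 also: IP1 builds up when IMPase is blocked and the TR-FRET signal falls; potency is read from the fitted curve at half-maximal effect; plate controls were basal vehicle for no effect and high inhibitor control for full effect; nearly all actives have a fitted effect of over 50% in size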
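CHO-M1, 2000 cells/well, 16–30 h culture; cpd + low Li+, 30 min 37C; lysis with d2-IP1/Eu-anti-IP1 Ab, 10 min RT; TR-FRET 665/620 ratio and 620 channel; AC50 via Hill.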
Epigenetic reg: epigenetic control regulation, reporter derepression; murine LDR cells, GFP reporter derepression, 30 h; Potency, µM (top dose mostly 53.9 µM), inactives show at the top dose GFP activation, actives largely listed as activators; 0.2% of 280,000 active; AID 1865; also: potency is read from the fitted curve at half-maximal effect; % of control where 0% means no effect; nearly all actives have a fitted effect of over 60% in size
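Murine LDR cells bearing a silenced CMV-driven GFP reporter were exposed to compound for 30 h at 37 C. After PBS washes, GFP-positive cells (20-120 um objects) counted by laser-scanning microplate cytometry.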
Active calls of the source: *; ? = inconclusive; nt = not tested or not shown; & = joins results of further samples; [ ] = dose if it differs, or a comment. Unless noted, calls follow the shape of the dose curve; as a rule, active = well fitted curve in the direction sought with a large enough effect; inconclusive = small, poorly fitted or top-dose-only effect, or another doubt; inactive = no such curve, though single readings can be large; an effect the other way counts as inactive or inconclusive. The list is partial, so the mix of outcomes need not match the whole.

#	NPSR antagonist	CBFb-RUNX1 inh	SMILES	Lamin A splicing	IMPase Li inh	Epigenetic reg
1	nt	10%	CCN1CCC[C@H]1CNC(=O)c1c(OC)ccc(Br)c1OC	?	1%&14%&2%	0.8%
2	-9%[46.1 µM]	1%	N/C(=N\OC(=O)c1ccccc1Cl)c1ccccn1	-11%	8%[38.3 µM]	1.3%
3	nt	2%[21.7 µM]	C[C@@H]1O[C@H](O[C@@H]2[C@H](C)O[C@H](O[C@@H]3[C@H](C)O[C@H](O[C@H]4CC[C@]5(C)[C@@H](CC[C@@H]6[C@H]5C[C@@H](O)[C@]5(C)[C@@H](C7=CC(=O)OC7)CC[C@]65O)C4)C[C@@H]3O)C[C@@H]2O)C[C@H](O)[C@@H]1O	?	3%	-0.3%[16.9 µM]
4	-8%[46.1 µM]	-1%	COc1ccc(NC(=O)Nc2ccccc2OC)cc1	-8%	14%[38.3 µM]	6.4%
5	?	4%&-14%&14%&16%&9%	Fc1ccc(C(c2ccc(F)cc2)N2CCN(C/C=C/c3ccccc3)CC2)cc1	?	19%&26%&14%&21%&20%	5.7%&-0.1%&1.6%&0.5%&0.8%
6	-2%[46.1 µM]	-1%	O=C(Nc1ccccc1)C(=O)Nc1ccccn1	11%[0.0737 µM]	-12%[38.3 µM]	-0.1%
7	-8%	2%	Cc1nonc1C(=O)N/N=C/c1ccccc1	1%[46 µM]	-3%	3.2%
8	13%[46.1 µM]	?	CC(C)NCC(O)c1cc(O)cc(O)c1 (configuration not stated)	?	-4%&1%	-0.2%&1.3%&3.6%
9	nt	2%	CC(C)(Oc1ccc(Cl)cc1)C(=O)O	?	-7%&18%&-4%&4%	0.8%
10	-12%	2%	Cc1ccc(C2=NCN(c3ccc(C(=O)O)cc3)C(=S)N2)cc1	nt	-2%	-5.1%
11	4%	?	CC1=NS(=O)(=O)c2cc(Cl)ccc2N1	?	5%&-5%&-8%&-6%&1%&-3%&-3%	1.9%
12	-16%[46.1 µM]	12%	c1ccc(-c2ccc(-c3nc(-c4ccccn4)no3)cc2)cc1	?	50%[activator][38.3 µM]	-2.4%
13	nt	1%	COc1cccc(OC)c1C(=O)NC1C(=O)N2C1SC(C)(C)C2C(=O)O (configuration not stated)	?	7%	-1.3%
14	-6%	7%&-7%&21%	CN(C)CCC(c1ccc(Br)cc1)c1ccccn1 (configuration not stated)	-1%&-14%	19%&20%&26%	-1.1%&-0.1%&-1.3%
15	nt	?	COCCc1ccc(OC[C@H](O)CNC(C)C)cc1	9%	-1%	2.5%[16.9 µM]
16	4%	-5%	COC(=O)CCC(=O)CN	?	-6%	4.0%
17	6%[46.1 µM]	11%	N[C@H]1CONC1=O	-20%	12%	-0.1%
18	11%	3%	CN1CCN(CC(=O)N2c3ccccc3C(=O)Nc3cccnc32)CC1	?	29%&27%&77%&19%&37%&22%	-1.0%
19	nt	6%[21.7 µM]	CN(C)CC[C@H](c1ccc(Br)cc1)c1ccccn1	?	9%	1.1%[16.9 µM]
20	nt	7%&-14%[21.7 µM]	COCCCCC(=NOCCN)c1ccc(C(F)(F)F)cc1	?	12%&-2%	0.4%

16 entries from above, with the structure last:
No. | NPSR antagonist | CBFb-RUNX1 inh | Lamin A splicing | IMPase Li inh | Epigenetic reg | canonical_smiles
5 | ? | 4%&-14%&14%&16%&9% | ? | 19%&26%&14%&21%&20% | 5.7%&-0.1%&1.6%&0.5%&0.8% | Fc1ccc(C(c2ccc(F)cc2)N2CCN(C/C=C/c3ccccc3)CC2)cc1
6 | -2%[46.1 µM] | -1% | 11%[0.0737 µM] | -12%[38.3 µM] | -0.1% | O=C(Nc1ccccc1)C(=O)Nc1ccccn1
7 | -8% | 2% | 1%[46 µM] | -3% | 3.2% | Cc1nonc1C(=O)N/N=C/c1ccccc1
8 | 13%[46.1 µM] | ? | ? | -4%&1% | -0.2%&1.3%&3.6% | CC(C)NCC(O)c1cc(O)cc(O)c1 (configuration not stated)
9 | nt | 2% | ? | -7%&18%&-4%&4% | 0.8% | CC(C)(Oc1ccc(Cl)cc1)C(=O)O
10 | -12% | 2% | nt | -2% | -5.1% | Cc1ccc(C2=NCN(c3ccc(C(=O)O)cc3)C(=S)N2)cc1
11 | 4% | ? | ? | 5%&-5%&-8%&-6%&1%&-3%&-3% | 1.9% | CC1=NS(=O)(=O)c2cc(Cl)ccc2N1
12 | -16%[46.1 µM] | 12% | ? | 50%[activator][38.3 µM] | -2.4% | c1ccc(-c2ccc(-c3nc(-c4ccccn4)no3)cc2)cc1
13 | nt | 1% | ? | 7% | -1.3% | COc1cccc(OC)c1C(=O)NC1C(=O)N2C1SC(C)(C)C2C(=O)O (configuration not stated)
14 | -6% | 7%&-7%&21% | -1%&-14% | 19%&20%&26% | -1.1%&-0.1%&-1.3% | CN(C)CCC(c1ccc(Br)cc1)c1ccccn1 (configuration not stated)
15 | nt | ? | 9% | -1% | 2.5%[16.9 µM] | COCCc1ccc(OC[C@H](O)CNC(C)C)cc1
16 | 4% | -5% | ? | -6% | 4.0% | COC(=O)CCC(=O)CN
17 | 6%[46.1 µM] | 11% | -20% | 12% | -0.1% | N[C@H]1CONC1=O
18 | 11% | 3% | ? | 29%&27%&77%&19%&37%&22% | -1.0% | CN1CCN(CC(=O)N2c3ccccc3C(=O)Nc3cccnc32)CC1
19 | nt | 6%[21.7 µM] | ? | 9% | 1.1%[16.9 µM] | CN(C)CC[C@H](c1ccc(Br)cc1)c1ccccn1
20 | nt | 7%&-14%[21.7 µM] | ? | 12%&-2% | 0.4% | COCCCCC(=NOCCN)c1ccc(C(F)(F)F)cc1

(continued)
#	NPSR antagonist	CBFb-RUNX1 inh	SMILES	Lamin A splicing	IMPase Li inh	Epigenetic reg
21	?	-2%	C[C@H]1CC2[C@@H]3CCC4=CC(=O)C=C[C@]4(C)[C@@]3(F)[C@@H](O)C[C@]2(C)[C@@]1(O)C(=O)CO (some centres not stated)	-3%	-2%	1.1%
22	9%[46.1 µM]	-23%	N[C@@H]1CONC1=O	?	5%&1%&3%	-1.2%
23	-2%[46.1 µM]	-9%	Cc1cccc(-c2noc(-c3ccc(F)cc3)n2)c1	-19%	5%[38.3 µM]	0.0%
24	15%	25%	CCC(=O)O[C@@H]1CC(=O)O[C@H](C)CC=CC=C[C@@H](O)[C@H](C)C[C@H](CC=O)[C@H](O[C@H]2O[C@H](C)[C@@H](O[C@H]3C[C@@](C)(O)[C@@H](OC(=O)CC)[C@H](C)O3)[C@H](N(C)C)[C@H]2O)[C@H]1OC	nt	nt	1.0%
25	nt	-1%[21.7 µM]	Cc1cc(C(=O)NNCc2ccccc2)no1	?	-4%	5.5%[16.9 µM]
26	4%[46.1 µM]	11%	CN(C)CC[C@@H](c1ccc(Br)cc1)c1ccccn1	?	16%	-2.3%
